NOMO-1 viab – STK33 inhibitor candidate reducing NOMO-1 cell viability | NOMO-1 AML viability, CellTiter-Glo luminescence, 72 h | inhibition, % (no concentration beside the values) | hit rate 7.5% among 37,000;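 active = most replicates above 80%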;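 also: wells of about 30 µL received 25 nL stock; 0% = median of vehicle wells and 100% = reference inhibitor level; the first replicate is given; inactives centre near 10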
* = called active by the depositor. Only part of the results is shown; count on the stated rates, not on these rows.

SMILES	NOMO-1 viab
Cc1ccc(S(=O)(=O)Nc2cccc3c2O[C@H](CN(C)Cc2ccc(C(=O)O)cc2)[C@H](C)CN([C@H](C)CO)C3=O)cc1	-7
NC(=O)COc1ccc(NC(=O)c2cc(-n3cnnc3)ccc2Cl)cc1	35
C1=C(c2ccccc2)CC(c2ccccc2)=NN=C1c1ccccc1	-18
CN(CC(=O)Nc1ccccc1Cl)S(=O)(=O)c1ccc2ccccc2c1	9
C[C@@H]1CN([C@H](C)CO)C(=O)Cc2cc(NC(=O)C3CC3)ccc2O[C@H]1CN(C)Cc1ccccc1	12
COc1ccccc1-n1c(SCC(N)=O)nc2ccc(I)cc2c1=O	18
Cc1ccc(N(C(C)C(=O)Nc2cc(Cl)ccc2Oc2ccccc2)S(C)(=O)=O)cc1C (stereo unspecified)	58
CC(=O)Nc1ccc(C(=O)CSc2nc3ccccc3c(=O)[nH]2)cc1	13
Cc1c(NC(=O)COc2ccc(Br)cc2)cccc1-c1nc2ncccc2o1	30
C[C@@H]1CN([C@H](C)CO)C(=O)Cc2cc(NS(=O)(=O)c3ccccc3)ccc2O[C@H]1CN(C)C(=O)NC1CCCCC1	4
COC(=O)C1=CO[C@@H](O[C@@H]2O[C@H](CO)[C@@H](O)[C@H](O)[C@H]2O)[C@H]2[C@@H]1C=CC21C=C([C@H](C)OC(=O)/C=C/c2ccc(O)cc2)C(=O)O1 (stereo partly specified)	10
Cc1ccc(NC(=O)COc2ccc(C(C)(C)C)cc2)c([N+](=O)[O-])c1	0
CNC[C@@H]1Oc2c(NC(=O)Nc3ccc4c(c3)OCO4)cccc2C(=O)N([C@@H](C)CO)C[C@H]1C	-14
C[C@H](CO)N1C[C@H](C)[C@H](CN(C)C(=O)Nc2cccc3ccccc23)Oc2ccc(NC(=O)Cc3cn(C)c4ccccc34)cc2C1=O	88*
Clc1ccccc1N=C/C=C1\NN=NC1c1ccc(Br)cc1 (stereo unspecified)	47
COc1ccc(NC(=O)N(C)C[C@H]2OCCCC[C@@H](C)Oc3ccc(NS(=O)(=O)c4ccc(C)cc4)cc3C(=O)N([C@H](C)CO)C[C@@H]2C)cc1	9
C[C@@H]1CN([C@H](C)CO)C(=O)c2cc(NC(=O)Cc3ccccc3)ccc2O[C@@H]1CN(C)S(=O)(=O)c1ccc(Cl)cc1	4
COC(=O)c1ccc(Cl)c(NC(=O)CN(c2cccc(Cl)c2)S(C)(=O)=O)c1	129*
CC(C)n1cnc2c(NCc3ccccc3O)nc(NCCCO)nc21	35
C[C@H]1CN([C@@H](C)CO)C(=O)c2cccc(NS(=O)(=O)c3cn(C)cn3)c2O[C@H]1CN(C)Cc1ccc(Oc2ccccc2)cc1	11
C[C@H]1CN([C@@H](C)CO)C(=O)c2cc(NC(=O)C3CC3)ccc2O[C@@H]1CN(C)S(=O)(=O)c1cccs1	-3
COc1ccc(CN(C)C[C@H]2Oc3ccc(NC(=O)Nc4ccc(OC)cc4)cc3C(=O)N([C@@H](C)CO)C[C@@H]2C)cc1	13
COCCn1c(C)cc(C=C2C(=O)N(C)C(=S)N(C)C2=O)c1C	22
Cc1ccc(S(=O)(=O)N2CCC(C#N)C(=O)c3ccccc32)cc1 (stereo unspecified)	9
COc1ccc(C)cc1NC(=S)NCc1cnn(C)c1	-2
COc1ccc(NC(=O)N(C)C[C@@H]2Oc3ccc(NS(=O)(=O)c4ccc(F)cc4)cc3CC(=O)N([C@H](C)CO)C[C@@H]2C)cc1	24
CC1CCc2c(sc(NC(=O)c3ccc(Cn4cc(Br)cn4)o3)c2C(N)=O)C1 (stereo unspecified)	29
COc1ccc(NC(=O)Nc2ccc3c(c2)CC(=O)N([C@H](C)CO)C[C@@H](C)[C@H](CN(C)Cc2ccc(C(=O)O)cc2)O3)cc1	25
Cc1cccc(N(CC(=O)Nc2ccc(Cl)c(Cl)c2)S(C)(=O)=O)c1	37
COc1ccc(NC(=O)N(C)C[C@@H]2Oc3ccc(NC(=O)CCCN(C)C)cc3C(=O)N([C@H](C)CO)C[C@@H]2C)cc1	-6

A draw from above in order of SMILES length, rising:
SMILES	NOMO-1 viab
Cc1ccc(S(=O)(=O)N2CCC(C#N)C(=O)c3ccccc32)cc1 (stereo unspecified)	9
Cc1cccc(N(CC(=O)Nc2ccc(Cl)c(Cl)c2)S(C)(=O)=O)c1	37
CC1CCc2c(sc(NC(=O)c3ccc(Cn4cc(Br)cn4)o3)c2C(N)=O)C1 (stereo unspecified)	29

Going on with the list:
SMILES	NOMO-1 viab
O=C(CC1C(=O)NCCN1C(=O)Nc1ccc(Cl)cc1)Nc1ccc(F)cc1 (stereo unspecified)	38
C[C@@H]1CN([C@H](C)CO)C(=O)c2cc(NC(=O)Cc3cn(C)c4ccccc34)ccc2O[C@H]1CN(C)S(=O)(=O)c1cccs1	-5
O=C(CSc1nnc(-c2cccc(Cl)c2)o1)Nc1ccccc1	6
Cc1noc(C)c1NC(=O)N(C)C[C@H]1Oc2c(NS(=O)(=O)c3c(C)noc3C)cccc2C(=O)N([C@H](C)CO)C[C@H]1C	-10
COc1ccc(NC(=O)Nc2ccc3c(c2)C(=O)N([C@H](C)CO)C[C@@H](C)[C@@H](CN(C)Cc2ccc(-c4ccccc4)cc2)O3)cc1	94*
CC(C)(C)C1CCc2c(sc(NC(=O)COc3ccc(Cl)cc3)c2C(N)=O)C1 (stereo unspecified)	89*
C[C@H]1CN([C@@H](C)CO)C(=O)c2cc(NS(=O)(=O)c3cn(C)cn3)ccc2O[C@@H]1CN(C)Cc1ccc2c(c1)OCO2	9
C[C@@H]1CN([C@@H](C)CO)C(=O)c2cccc(NS(C)(=O)=O)c2O[C@@H]1CN(C)Cc1ccc(C(=O)O)cc1	-4
O=c1[nH]c2ccccc2n1CCCSc1nnc2c(n1)[nH]c1ccccc12	20
C[C@H]1CN([C@@H](C)CO)C(=O)c2cc(NC(=O)Nc3ccccc3)ccc2O[C@@H]1CN(C)C	-16

In a second layout: 2 of the compounds above.
canonical_smiles | NOMO-1 viab
Cc1noc(C)c1NC(=O)N(C)C[C@H]1Oc2c(NS(=O)(=O)c3c(C)noc3C)cccc2C(=O)N([C@H](C)CO)C[C@H]1C | -10
COc1ccc(NC(=O)Nc2ccc3c(c2)C(=O)N([C@H](C)CO)C[C@@H](C)[C@@H](CN(C)Cc2ccc(-c4ccccc4)cc2)O3)cc1 | 94*

The listing continues:
SMILES	NOMO-1 viab
Cc1noc(C)c1S(=O)(=O)N(C)C[C@H]1Oc2ccc(NC(=O)Cc3cn(C)c4ccccc34)cc2CC(=O)N([C@H](C)CO)C[C@H]1C	24
C[C@@H]1CN([C@H](C)CO)C(=O)c2cc(NS(=O)(=O)c3cn(C)cn3)ccc2O[C@H]1CN(C)Cc1ccncc1	-3
CCOC(=O)C1CCN(C(=O)N2c3ccccc3Sc3ccccc32)CC1	2
Cc1noc(C)c1S(=O)(=O)N(C)C[C@@H]1OCCCC[C@@H](C)Oc2ccc(NC(=O)CCC(F)(F)F)cc2C(=O)N([C@H](C)CO)C[C@@H]1C	15
COc1cc(O[C@@H]2O[C@H](CO[C@H]3OC[C@](O)(CO)[C@H]3O)[C@@H](O)[C@H](O)[C@H]2O)cc(OC)c1OC	65
CNC[C@H]1Oc2c(NC(=O)Nc3ccc(OC)cc3)cccc2C(=O)N([C@@H](C)CO)C[C@@H]1C	-7
CN(CC(=O)Nc1ccccc1C(=O)N1CCCC1)S(=O)(=O)c1ccc(Br)cc1	16
S=C(NCC1CCCO1)Nc1cnn(Cc2ccc(Cl)cc2)c1 (stereo unspecified)	3
C[C@H]1CN([C@@H](C)CO)C(=O)c2cc(NS(=O)(=O)c3ccccc3)ccc2O[C@H]1CN(C)Cc1ccc(Oc2ccccc2)cc1	53
C[C@H](CO)N1C[C@H](C)[C@@H](CN(C)C(=O)Nc2ccc(C(F)(F)F)cc2)Oc2ccc(NC(=O)CCCCCC(=O)Nc3ccccc3N)cc2C1=O	-3

In the list so far, these have an aryl thioether with sulfur outside any ring:
SMILES	NOMO-1 viab
COc1ccccc1-n1c(SCC(N)=O)nc2ccc(I)cc2c1=O	18
CC(=O)Nc1ccc(C(=O)CSc2nc3ccccc3c(=O)[nH]2)cc1	13
O=C(CSc1nnc(-c2cccc(Cl)c2)o1)Nc1ccccc1	6
O=c1[nH]c2ccccc2n1CCCSc1nnc2c(n1)[nH]c1ccccc12	20

Later entries.
SMILES	NOMO-1 viab
C[C@@H]1CN([C@@H](C)CO)C(=O)Cc2cc(NC(=O)Nc3ccc4c(c3)OCO4)ccc2O[C@@H]1CN(C)C(=O)Nc1ccc(F)cc1	30
COc1ccc(NC(=O)CSc2n[nH]c(-c3ccncc3)n2)cc1	-11
C[C@H](CO)N1C[C@H](C)[C@H](CN(C)S(=O)(=O)c2cccs2)Oc2ccc(NC(=O)Nc3ccc4c(c3)OCO4)cc2C1=O	23
O=C(c1ccco1)n1nc(-c2ccc(Cl)cc2)nc1NCc1ccco1	26
CN(CC(=O)Nc1ccc([N+](=O)[O-])cc1)S(=O)(=O)c1ccccc1	25
Cc1noc(C)c1NC(=O)Nc1ccc2c(c1)C(=O)N([C@H](C)CO)C[C@H](C)[C@@H](CN(C)C(=O)Nc1cccc3ccccc13)OCCCC[C@@H](C)O2	-6
Cc1noc(C)c1NC(=O)N(C)C[C@@H]1Oc2ccc(NC(=O)CCC(F)(F)F)cc2C(=O)N([C@H](C)CO)C[C@@H]1C	14
Cc1ccc(S(=O)(=O)N(C)C[C@H]2Oc3ccc(NS(=O)(=O)c4ccccc4)cc3CC(=O)N([C@@H](C)CO)C[C@@H]2C)cc1	23
Cc1csc(SCC(=O)Nc2ccc3c(c2)OCCO3)n1	-9
Cc1noc(C)c1NC(=O)Nc1ccc2c(c1)C(=O)N([C@@H](C)CO)C[C@H](C)[C@H](CN(C)S(=O)(=O)c1cn(C)cn1)O2	10
O=S(=O)(CCSc1ccccn1)c1nc2ccccc2s1	108*
CCc1ccc(C(Nc2cc(C)ccn2)c2ccc3cccnc3c2O)cc1 (stereo unspecified)	112*
CCOC(=O)c1c(NC(=O)C(C)Oc2ccc3c(C)cc(=O)oc3c2)sc2c1CCCC2 (stereo unspecified)	-4
C[C@@H]1CN([C@H](C)CO)C(=O)c2cccc(NS(=O)(=O)c3cn(C)cn3)c2O[C@@H]1CN(C)S(=O)(=O)c1ccc(F)cc1	17
C[C@H](CO)N1C[C@H](C)[C@H](CN(C)Cc2ccc(Cl)c(Cl)c2)Oc2c(NS(=O)(=O)c3ccc(F)cc3)cccc2C1=O	91*
COc1ccc(C(=O)Nc2ccccc2)cc1S(=O)(=O)Nc1cccnc1	-4
Cc1cccc(NC(=O)CSc2nnc(-c3ccco3)n2-c2ccccc2)c1C	12
C[C@H]1CN([C@@H](C)CO)C(=O)c2cccc(NC(=O)c3ccc(-c4nccs4)cc3)c2O[C@H]1CN(C)C(=O)Nc1ccccc1	20
O=C(CN1C(=O)c2ccccc2C1=O)Nc1ccc(NC(=O)c2ccccc2F)cc1	10
CN(CC(=O)N1CCN(c2ccccn2)CC1)S(=O)(=O)c1ccc2ccccc2c1	41
CC(C(=O)Nc1cccc2cccnc12)N1C(=O)c2ccccc2C1=O (stereo unspecified)	-4
O=C(NCCCN1CCOCC1)C1CC(c2cccc(Br)c2)=NO1 (stereo unspecified)	28
Cc1cc(C)c(OCC(=O)Nc2nnn(C)n2)c(Br)c1	1
C[C@@H]1CN([C@@H](C)CO)C(=O)c2cc(NC(=O)Nc3ccc(F)cc3)ccc2O[C@@H]1CN(C)S(=O)(=O)c1cn(C)cn1	2
Cc1ccc(NC(=S)NC(=O)C23CC4CCC(CC(C4)C2)C3)cc1	26
CC(=O)c1c(C)oc2ccc(NS(=O)(=O)c3cccc4cccnc34)cc12	34
CC(C)(C)n1nc(C2CC2)cc1NC(=O)Nc1ccccc1	24
C[C@H]1CN([C@@H](C)CO)C(=O)c2cc(NC(=O)Cc3ccccc3)ccc2O[C@H]1CN(C)Cc1ccccc1	24
C[C@H]1CN([C@@H](C)CO)C(=O)Cc2cc(NC(=O)c3ccncc3)ccc2O[C@H]1CN(C)S(C)(=O)=O	-6
C[C@H]1CN([C@@H](C)CO)C(=O)Cc2cc(NC(=O)NC3CCCCC3)ccc2O[C@@H]1CN(C)S(=O)(=O)c1cccs1	19

Exported bar-delimited: entries from further up
molecule | NOMO-1 viab
O=C(NCCCN1CCOCC1)C1CC(c2cccc(Br)c2)=NO1 (stereo unspecified) | 28
Cc1cc(C)c(OCC(=O)Nc2nnn(C)n2)c(Br)c1 | 1
C[C@@H]1CN([C@@H](C)CO)C(=O)c2cc(NC(=O)Nc3ccc(F)cc3)ccc2O[C@@H]1CN(C)S(=O)(=O)c1cn(C)cn1 | 2

New compounds follow
SMILES	NOMO-1 viab
CC(C)NC(=O)Nc1ccc2c(c1)C(=O)N([C@@H](C)CO)C[C@@H](C)[C@@H](CN(C)C(=O)NC1CCCCC1)O2	-9
COc1ccc(S(=O)(=O)N(C)C[C@@H]2Oc3ccc(NS(=O)(=O)c4ccc(Cl)cc4)cc3C(=O)N([C@@H](C)CO)C[C@H]2C)cc1	2
C=C(C)C(=O)Nc1ccc2c(c1)C(=O)NC2=O	-19
CC(NS(=O)(=O)c1ccc(F)cc1)C(=O)Nc1ccc(F)c(Cl)c1 (stereo unspecified)	16
CNC[C@H]1Oc2ccc(NS(=O)(=O)c3ccc(OC)cc3)cc2CC(=O)N([C@H](C)CO)C[C@H]1C	24
CNC[C@@H]1Oc2ccc(NS(=O)(=O)c3cn(C)cn3)cc2C(=O)N([C@H](C)CO)C[C@H]1C	12
C[C@H]1CN([C@@H](C)CO)C(=O)Cc2cc(NC(=O)C3CCCCC3)ccc2O[C@@H]1CN(C)Cc1ccc2c(c1)OCO2	18
COc1ccc(S(=O)(=O)N(C)CC(=O)Nc2cccc(Cl)c2C)cc1OC	3
Cc1ccc(S(=O)(=O)N(C)C[C@@H]2Oc3ccc(NC(=O)Cc4ccccc4)cc3CC(=O)N([C@@H](C)CO)C[C@@H]2C)cc1	21
C[C@@H]1CCCCO[C@@H](CN(C)CC2CCCCC2)[C@@H](C)CN([C@H](C)CO)C(=O)c2cc(NS(=O)(=O)c3cn(C)cn3)ccc2O1	23
Cc1noc(C)c1S(=O)(=O)Nc1cccc2c1O[C@@H](CN(C)C(=O)NC(C)C)[C@@H](C)CN([C@H](C)CO)C2=O	2
NC(N)=NS(=O)(=O)c1ccc(N=Cc2ccccc2O)cc1	5
